# Screening data: PubChem BioAssay, Emory University Molecular Libraries Screening Center
# Measles inh = inhibitors of measles virus growth in infected cells; infected Vero cells, GFP fluorescence, 64 h; hits give low values; z-score (test concentration not listed); 33,000 tested, 0.1% active; AID 745;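 active = z-score under -3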;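 note: score is relative to mean and SD of the compound wells of a plate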
# Numbers without * were called inactive. Some of the compounds tested; count on the stated rates, not on these rows.
Measles inh,Structure
-0.95,Cc1ccc(CNS(=O)(=O)c2ccc(F)cc2)cc1
-0.76,CCCNC(=O)c1ccc(N2CC3CC(C2)c2cccc(=O)n2C3)c(NS(=O)(=O)c2ccc(F)cc2)c1 (centres undefined)
-0.2,COC(=O)c1c(C)[nH]c(C)c1-c1cccc([N+](=O)[O-])c1
-0.22,CCOC(=O)c1[nH]c2c(c1C)C(=O)CC(c1ccc(Cl)cc1)C2 (centres undefined)
0.33,O=[N+]([O-])c1cccc2nc(-c3ccccc3)c(-c3ccccc3)nc12
-0.31,COC(=O)c1ccc2c(=O)n(CCCN3CCCC3=O)c(=S)[nH]c2c1
0.59,COc1ccc(-n2ccsc2=S)cc1
1,COc1ccc(OC)c(NC(=O)C2CCN(S(=O)(=O)c3ccccc3)CC2)c1
-0.43,Cc1ccc(-n2nc3cc(C)c(NC(=O)COc4ccc5ccccc5c4)cc3n2)cc1
-0.62,O=C(CCCCCn1c(=O)[nH]c2ccsc2c1=O)NCc1ccco1
-0.45,COc1ccc(-c2cccc(C(=O)NCCOc3ccccc3Cl)c2)cc1
-0.3,CCOC(=O)c1ccc(N2CN(CC)CNC2=S)cc1
-0.92,O=C(Nc1sc2c(c1C(=O)O)CCCC2)c1cc2ccccc2o1
-0.54,COc1ccc(NC(=O)c2coc(=O)c3ccccc23)cc1Cl
2.5,CCN(CC)c1cc(C)c2cc([N+](=O)[O-])ccc2n1
0.52,O=C1CC(c2ccc(Cl)cc2)CC2=C1C(c1ccsc1)Nc1ccccc1N2 (centres undefined)
-0.76,O=C(NC1CCCCCC1)c1cncc(Br)c1
1.5,O=C1C(=O)N(CCCn2ccnc2)C(c2ccncc2)/C1=C(\O)c1ccc(F)cc1 (centres undefined)
1.4,O=C(COc1ccccc1Cl)Nc1ccc2oc(-c3ccncc3)nc2c1
-0.19,COC(=O)c1c[nH]n2c(NC3CCCCCC3)c(-c3ccc(F)cc3)nc12
0.34,COC(=O)C1=CN(C(C)C)C=C(C(=O)OC)C1c1ccccc1Br
1.2,O=C(Nc1ccc2c(c1)OCCO2)c1cc2cc3ccc(Cl)cc3nc2o1
-0.23,O=C(Nc1ccc(OC(F)(F)F)cc1)c1oc(=O)c2ccccc2c1-c1ccccc1
0.04,CCCCNc1nc(C)nc2c1sc1nc3c(cc12)COC(C)(C)C3
0.04,Nc1c(C(=O)c2ccccc2)oc2ccccc12

# In a second layout: entries from further up.
COc1ccc(-c2cccc(C(=O)NCCOc3ccccc3Cl)c2)cc1
  Measles inh = -0.45

COC(=O)C1=CN(C(C)C)C=C(C(=O)OC)C1c1ccccc1Br
  Measles inh = 0.34

# New compounds follow
Measles inh,Structure
-0.59,COc1ccc(C2CC(=O)C3=C(C2)NC(C)=C(C(=O)Nc2ccc(C)cc2)C3c2ccc(C)c([N+](=O)[O-])c2)cc1OC (centres undefined)
1.5,O=C(c1cccs1)N1CCC(N2CCN(c3ccccc3)CC2)CC1
0.32,COc1ccccc1OCc1nc2ccccc2[nH]1
-0.24,NC(=O)CSc1oc(-c2ccccc2)nc1S(=O)(=O)c1ccc(Cl)cc1
0.49,Cc1ccc(-c2nnc(SCC(=O)N3CCC(C)CC3)o2)cc1
-0.85,C[n+]1ccc(C=Cc2ccccc2O)c2ccccc21
-0.79,O=C(NCc1ccccc1)c1ccc(N2CC3CC(C2)c2cccc(=O)n2C3)c(NS(=O)(=O)c2ccc3c(c2)OCCO3)c1 (centres undefined)
-0.04,CCCNC(=O)NCCC12CC3CC(CC(C3)C1)C2
1.1,NS(=O)(=O)c1ccc(NC(=O)c2cc(-c3ccc(Br)s3)nc3ccccc23)cc1

# Sorted by value in Measles inh (rising): some entries from above.
Measles inh,Structure
-0.45,COc1ccc(-c2cccc(C(=O)NCCOc3ccccc3Cl)c2)cc1
-0.24,NC(=O)CSc1oc(-c2ccccc2)nc1S(=O)(=O)c1ccc(Cl)cc1
0.04,CCCCNc1nc(C)nc2c1sc1nc3c(cc12)COC(C)(C)C3
0.32,COc1ccccc1OCc1nc2ccccc2[nH]1
0.33,O=[N+]([O-])c1cccc2nc(-c3ccccc3)c(-c3ccccc3)nc12
1.1,NS(=O)(=O)c1ccc(NC(=O)c2cc(-c3ccc(Br)s3)nc3ccccc23)cc1
1.5,O=C1C(=O)N(CCCn2ccnc2)C(c2ccncc2)/C1=C(\O)c1ccc(F)cc1 (centres undefined)

# Compounds listed so far with a nitro group on carbon (four):
Measles inh,Structure
-0.2,COC(=O)c1c(C)[nH]c(C)c1-c1cccc([N+](=O)[O-])c1
0.33,O=[N+]([O-])c1cccc2nc(-c3ccccc3)c(-c3ccccc3)nc12
2.5,CCN(CC)c1cc(C)c2cc([N+](=O)[O-])ccc2n1
-0.59,COc1ccc(C2CC(=O)C3=C(C2)NC(C)=C(C(=O)Nc2ccc(C)cc2)C3c2ccc(C)c([N+](=O)[O-])c2)cc1OC (centres undefined)
